CBX7 inh – CBX7 inhibition, primary AlphaScreen; O95931; AlphaScreen His6-CBX7 / biotin-H3K27me3 peptide binding; hits give low values; normalised signal (fraction of DMSO) (test concentration not listed); 66,000 tested, 1.1% active; AID 1224903; in the data active = normalised signal below about 0.5;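 also: 100 nL library stock added to about 20 µL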
Target sequence (O95931 whole entry, looked up): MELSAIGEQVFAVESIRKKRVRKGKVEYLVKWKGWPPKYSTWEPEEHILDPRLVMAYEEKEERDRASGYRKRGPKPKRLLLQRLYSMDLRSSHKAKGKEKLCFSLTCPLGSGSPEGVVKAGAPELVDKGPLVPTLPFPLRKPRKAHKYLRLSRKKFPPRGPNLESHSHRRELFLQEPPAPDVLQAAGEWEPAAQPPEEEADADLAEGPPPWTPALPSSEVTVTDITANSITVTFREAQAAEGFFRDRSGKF
CBX7 inh z-score – also measured in CBX7 inh; calls as there; z-score; measured here: z-score of CBX7 signal; some inactives read as strong as hits; reference of the scale not given here;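 same signal on another scale; lower means less binding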
* marks the source's active call; other numbers are inactive results; & = joins results of further samples; ! = not active in a repeat.

Every second line gives: CBX7 inh	CBX7 inh z-score
> CCc1cccc(N2C(=O)Cn3cccc3C2C(=O)NC2CCCC2)c1 (stereo not given)
    0.978	-0.428
> COc1ccc(N2CCN(CC(O)COc3c(C)cccc3C)CC2)cc1 (stereo not given)
    0.919	-2.64
> COc1ccc(CC(=O)N2CC(=O)Nc3ccc(Br)cc3C2c2ccccc2)cc1OC (stereo not given)
    0.975	-0.106
> O=C(Cn1c2c(c(-c3ccccc3Cl)cc1=O)CCC2)NCc1ccc2c(c1)OCO2
    0.818	-1.97
> CCN1C(=O)c2ccccc2S(=O)c2ccc(C(=O)N3CCc4ccccc43)cc21 (stereo not given)
    1.04	0.929
> COc1ccc(NC(=O)Cc2c(SC)c3ccccc3n2Cc2ccccc2)cc1
    1.07	1.92
> COc1cc2c(cc1OC)C(C(=O)NCc1ccc(C)cc1)C1c3ccccc3CCN1C2=O (stereo not given)
    1.01	0.242
> COc1cccc(CN2C(=O)CN(C3CCC(C)CC3)C(=O)C2c2ccc(OC(C)C)c(OC)c2)c1 (stereo not given)
    0.809	-0.226
> Cc1cc(C)cc(NC(=O)CSc2nccn2-c2ccccc2)c1
    0.598	-8.69
> c1ccc(-c2nc(-c3cccnc3)[nH]c2-c2ccccc2)cc1
    0.308*!	-0.688*!
> Cc1ccc(-c2noc(CCC(=O)N3CCN(c4cc(C)ccc4C)CC3)n2)cc1
    1.09	3.25
> Cc1ccc(NS(=O)(=O)c2ccc3c(c2)CCC(=O)N3)cc1
    0.979	-0.474
> Cc1ccccc1OCCn1c(=N)n(CCO)c2ccccc21
    1	0.00186
> O=C1CC(c2c[nH]c3ccccc23)C(=O)N1c1ccc(O)cc1 (stereo not given)
    0.633	-4.91
> O=C(NCCc1nc2ccccc2[nH]1)c1ccc(-c2ccccc2)cc1
    1.05	1.98
> O=C(Cn1cnc2sc3c(c2c1=O)CCCC3)Nc1ccccc1C(F)(F)F
    0.917	-1.43
> CCc1ccc(-c2nc(C(=O)NCCCN3CCC(C)CC3)c(C)o2)cc1
    1.01	0.235
> COc1ccc(Nc2cc(C(=O)NCCc3ccc(Cl)cc3)c3ccccc3n2)cc1
    0.931	-0.814
> CCOC(=O)N1CCC(NC(=O)C2CCN(Cc3nc(-c4ccccc4C)oc3C)CC2)CC1
    1.19	1.59
> O=C1CSc2ccc(C(=O)N3CCN(c4cccc(Cl)c4)CC3)cc2N1
    0.93	-1.78
> Cc1ccc2oc(C(=O)Nc3c(C(=O)c4ccccc4)oc4ccccc34)c(C)c2c1
    1.48	1.7
> Cc1cccc2nc(-c3ccccn3)c(Nc3ccc(C(C)C)cc3)n12
    0.106*	-26.3*
> Cc1nc2ccccc2n1CCOc1ccccc1Cl
    1.03	0.929
> CCC(C)NC(=O)CCc1nc(-c2ccc(C)cc2)no1 (stereo not given)
    1.18	1.68
> Cc1cccc(CCNC(=O)C2CCN(S(=O)(=O)c3c(C)nn(C)c3C)CC2)c1
    1.13	1.5
> Cc1cc(N2CC(C)CC(C)C2)nc2ccc(NC(=O)CCC(=O)NC(C)C)cc12 (stereo not given)
    1.01	0.647
> COc1ccc(-c2cc(C(F)(F)F)nc(NCc3ccc(F)cc3)n2)cc1OC
    1.13	5.17
> CCN(CCNC(=O)CN1N=C(c2ccccc2)CCC1=O)c1ccccc1
    0.86	-2.17
> O=C(O)c1c[nH]c2cc(N3CCCCCC3)c(F)cc2c1=O
    1.06	1.4
> C=CCN(c1ccccc1)C(C(=O)NC1CCCCC1)c1ccc(C)cc1 (stereo not given)
    0.805	-1.97
> COc1ccc(NC(=O)c2cc3nc4c(c(C(F)(F)F)n3n2)CCc2ccccc2-4)c(OC)c1
    1.04	0.269
> CCOC(=O)c1cnc2ccccc2c1Nc1cccc2ccccc12
    0.963	-0.82
> Cc1cc2c(cc1C)C(c1ccc(C)c(Br)c1)CC(=O)N2 (stereo not given)
    0.95	-0.0659
> Cc1ccc(-c2nnc(SCC(=O)N3CCCCC3)o2)cc1C
    1.24	2.49
> O=C(Cc1c(C(=O)O)[nH]c2ccccc12)Nc1ccc(Cl)cn1
    1.02	0.472
> CC12CCC(c3nc4cc(F)ccc4nc31)C2(C)C (stereo not given)
    1.01	0.12
> NS(=O)(=O)c1ccc(CCNC(=O)c2ccc3c(c2)N(Cc2ccccc2)CCS3)cc1
    1	0.00553
> CCOC(=O)c1ccc2nc(C)cc(Nc3cccc(C(=O)O)c3)c2c1
    1	0.16
> CCCCNC(=O)CCn1nc(-c2ccc(C)cc2)ccc1=O
    1.07	1.76
> COc1ccc(CCC(=O)Nc2ccc(-c3noc(COc4ccccc4C)n3)cc2)cc1
    1.03	0.277
> CC(=O)N1CCc2cc(S(=O)(=O)NCCC(=O)N3CCN(c4ccc(F)cc4)CC3)ccc21
    1.06	1.95
> CCc1ccccc1N(C)S(=O)(=O)c1ccc2[nH]cc(C(=O)NCC(OC)OC)c(=O)c2c1
    0.964	-0.392
> Cc1c(C(=O)N(Cc2ccccc2)C(C)C)oc2ccc(S(=O)(=O)N3CCOCC3)cc12
    0.906	-2.13
> COc1ccc(/C=C/c2nc(-c3ccccc3O)n(-c3ccccc3)n2)cc1OC
    0.943	-0.675
> COCCN1Cc2cccc(C(=O)Nc3ccccc3C(F)(F)F)c2C1=O
    1.12	1.42

Looked up above.
O=C(O)c1c[nH]c2cc(N3CCCCCC3)c(F)cc2c1=O | CBX7 inh: 1.06
COc1ccc(NC(=O)Cc2c(SC)c3ccccc3n2Cc2ccccc2)cc1 | CBX7 inh: 1.07

Carrying on.
Every second line gives: CBX7 inh	CBX7 inh z-score
> O=C(O)CCc1nn2cc(-c3ccccc3)nc2[nH]c1=O
    0.931&0.992	-1.72&-0.203
> COCCN(CCOC)S(=O)(=O)c1ccc(C(=O)Nc2ccccc2-c2nc3ccccc3s2)cc1
    1.11	2.15
> Cc1ccc(NC(=O)c2ccc3c(c2)C(=O)N(c2ccccc2C)C3=O)cc1
    0.97	-0.268
> Cc1ccccc1NC(=O)CS(=O)(=O)Cc1nc(-c2ccccc2C)oc1C
    1.03	0.11
> COc1ccc(N2Cc3cccc(C(=O)NCCc4ccc(OC)cc4OC)c3C2=O)cc1
    0.842	-3.83
> CCOC(=O)c1c(NC(=O)c2ccc(Cl)cc2)sc2c1CCC(C)C2 (stereo not given)
    1.12	1.66
> O=C(O)c1ccc(Oc2ccc3c(c2)C(=O)N(c2ccccn2)C3=O)cc1
    1	0.0939
> COCCNC(=O)c1ccc2c(c1)ncn2-c1cc(Cl)ccc1OC
    0.802	-2.49
> COc1ccc(NC(=O)C2CC2(c2ccccc2)c2ccccc2)cc1 (stereo not given)
    1.28	4.31
> COc1ccc(-c2nc(N)sc2C)cc1
    0.842	-2.5
> CCCc1c2c(nn1-c1ccccc1F)CC(C)(C)CC2=O
    1.19	4.19
> Cc1cc(C)cc(NS(=O)(=O)c2ccc3[nH]cc(C(=O)NC4CCCCC4)c(=O)c3c2)c1
    0.994	-0.112
> COc1ccccc1-c1cc(C(=O)NCc2ccccc2)no1
    1.12	1.41
> COc1ccc(-c2cc3nc(C)c(CCC(=O)N4CCOCC4)c(C)n3n2)c(OC)c1
    1.12	1.36
> Fc1cccc(Nc2nc(-c3cccnc3)nc3ccccc23)c1
    1.11	2.77
> Cc1ccc(Cc2c(C)nc3c(C(=O)NC4CCCc5ccccc54)cnn3c2C)cc1 (stereo not given)
    0.859	-3.88
> COCCCNC(=O)c1sc2nc(C)nc(N3CCOCC3)c2c1C
    1.03	0.885
> Cc1ccccc1Cn1c(-c2cncs2)nc2ccccc21
    1.15	5.07
> CCOc1ccc(C(=O)Nc2nc(-c3ccc(C(C)C)cc3)cs2)cc1
    0.816	-7.14
> CC(C)(C)C1CCc2nc(N)c3c(=O)oc4ccccc4c3c2C1 (stereo not given)
    0.939	-1.13
> Cc1ccc2c(c1)N(CCC(=O)NCCc1ccccc1)C(=O)C(C)O2 (stereo not given)
    0.981	-0.469
> COc1ccc(Br)c(-c2nc(Cc3ccc(OC)c(OC)c3)no2)c1
    1.12	1.13
> CCc1ccccc1NC(=O)c1cnc2ccccn2c1=O
    0.979	-0.294
> COc1ccc(C2(C)CC(=O)NC2=O)cc1 (stereo not given)
    1.04	0.47
> COc1cc(NC(=O)c2ccc3c(c2)c(C)c(C)n3C)cc(OC)c1
    0.875	-2.24
> Cc1ccc(-c2nc(C(=O)NC(C)CCc3ccccc3)c(C)o2)cc1 (stereo not given)
    1.01	0.27
> CCCCCCCNC(=O)CN1C(=O)CSc2ccc(S(=O)(=O)N3CCOCC3)cc21
    0.996	-0.106
> Cc1cc(NC(=O)CNC(=O)Cn2cnc3sc4c(c3c2=O)CCCC4)no1
    1.08	2.53
> CC1(C)CC(=O)c2cc(-c3ccccc3)n(-c3ccc(C(=O)O)cc3)c2C1
    0.971	-0.688
> COc1ccc(-c2cn(-c3cccc(Br)c3)c(=O)[nH]2)cc1
    1.01	0.378
> CCC(C(=O)N1CCN(c2ccc(F)cc2)CC1)n1ncc2ccccc21 (stereo not given)
    0.877	-2.77
> COc1ccc(CN2CCN(c3ncnc4sc5c(c34)CC(C)CC5)CC2)cc1F (stereo not given)
    0.921	-2.75
> CCOC(=O)c1cc(-c2ccc(OC)cc2)n(CCC(=O)NCCc2ccccc2)c1C
    0.854	-3.45
> COc1ccc(-c2cc(C(F)(F)F)n3nc(C(=O)NC(C)c4ccccc4)c(Cl)c3n2)cc1 (stereo not given)
    1.05	1.33
> Clc1ccc(Nc2ncnc3ccccc23)cc1
    0.985	-0.451
> O=C(COc1ccc(Br)cc1)Nc1cccc(-c2nc3ncccc3o2)c1
    0.985	-0.55
> Cc1ccc(-c2nc3cc(NS(=O)(=O)c4ccc(C)cc4)ccc3o2)cc1
    1.02	0.169
> O=c1/c(=C/c2ccc(F)cc2F)sc2nc3ccccc3n12
    1.17	1.17
> Cc1cc(Nc2cccc(Cl)c2)c2ccc(Cl)cc2n1
    0.922	-0.0921
> c1ccc2c(c1)nc(N1CCCCCC1)c1nncn12
    1.01	0.16
> COc1ccc(-n2ccnc2SCC(=O)Nc2cc(C(F)(F)F)ccc2Cl)cc1
    0.964	-0.556
> Cn1nc(-c2ccccc2F)c2cc(C(=O)Nc3ccc4c(c3)OCO4)sc21
    0.726	-4.48
> CCOC(=O)c1ccc(NC(=O)C2CCN(S(=O)(=O)c3ccc(C)cc3)CC2)cc1
    1	0.154
> Cc1c(C(=O)N2CCCCCC2)oc2ccc(S(=O)(=O)N3CCOCC3)cc12
    1.01	0.133
> CN(C)CCNC(=O)c1ccc2c(c1)N(Cc1ccccc1)C(=O)c1ccccc1S2(=O)=O
    1.06	1.43

A second format for part of the listing above:
SMILES | CBX7 inh | CBX7 inh z-score
COc1ccc(CN2CCN(c3ncnc4sc5c(c34)CC(C)CC5)CC2)cc1F (stereo not given) | 0.921 | -2.75
CCOC(=O)c1cc(-c2ccc(OC)cc2)n(CCC(=O)NCCc2ccccc2)c1C | 0.854 | -3.45

(more compounds)
Every second line gives: CBX7 inh	CBX7 inh z-score
> CCn1cc(C(=O)NCCc2ccc(OC)c(OC)c2)c(=O)c2ccc(C)nc21
    1.03	0.32
> O=C(Nc1c(C(=O)Nc2ccccc2F)oc2ccccc12)c1ccccc1
    1.01	0.361
> COc1cc2c(C(=O)NCC3COc4ccccc4O3)cn(CC(C)C)c(=O)c2cc1OC (stereo not given)
    1.1	0.8
> O=C(C1CCN(c2nc3ccccc3n2Cc2ccc(F)cc2)CC1)N1CCN(c2ncccn2)CC1
    0.971	-0.865
> COc1ccc(-c2noc(CCC(=O)NCC3COc4ccccc4O3)n2)cc1 (stereo not given)
    0.877	-0.123
> CCOc1ccc2nc(N3CCCC(C(=O)NCCCN4C(C)CCCC4C)C3)sc2c1 (stereo not given)
    1.07	1.76
> CCC1CCCCN1C(=O)c1sc2nc(-c3ccccc3)cn2c1C (stereo not given)
    1.03	1.01
> Cc1cc(C)nc(NC2=NCC(=O)N2c2ccc(Oc3ccccc3)cc2)n1
    1.05	2.43
> COc1ccc(CCNC(=O)c2ccc3c(c2)nc(C)n3-c2cccc(F)c2)cc1OC
    0.976	-1.1
> Nc1c(C(=O)NCc2ccccc2)nnn1Cc1ccccc1
    1.04	1.04
> COc1ccc(CCC(=O)Nc2ccc3nc(N4CCN(C)CC4)cc(C)c3c2)cc1
    1.09	3.39
> CC1C(=O)C(C)C(c2ccc(F)cc2)NC1c1ccc(F)cc1 (stereo not given)
    1.12	0.118
> O=S(=O)(c1ccc(Cl)cc1)c1nc(/C=C/c2ccccc2)oc1N1CCOCC1
    0.92	-0.0895
> COc1ccc(OC)c(NC2c3ccccc3C(=O)N2c2ccccc2C)c1 (stereo not given)
    0.826	-5.85
> COc1ccc(NC(=O)CSc2nccn2-c2ccc(Cl)cc2)cc1
    0.6	-1.41

Sorted by value in CBX7 inh z-score (falling): some entries from above
mol | CBX7 inh z-score
Cc1cc(C)nc(NC2=NCC(=O)N2c2ccc(Oc3ccccc3)cc2)n1 | 2.43
CCOc1ccc2nc(N3CCCC(C(=O)NCCCN4C(C)CCCC4C)C3)sc2c1 (stereo not given) | 1.76
Nc1c(C(=O)NCc2ccccc2)nnn1Cc1ccccc1 | 1.04
CCC1CCCCN1C(=O)c1sc2nc(-c3ccccc3)cn2c1C (stereo not given) | 1.01
CCn1cc(C(=O)NCCc2ccc(OC)c(OC)c2)c(=O)c2ccc(C)nc21 | 0.32
CC1C(=O)C(C)C(c2ccc(F)cc2)NC1c1ccc(F)cc1 (stereo not given) | 0.118
O=S(=O)(c1ccc(Cl)cc1)c1nc(/C=C/c2ccccc2)oc1N1CCOCC1 | -0.0895

(listing goes on)
Every second line gives: CBX7 inh	CBX7 inh z-score
> O=C(Cc1ccc(-n2c(=O)[nH]c3ccsc3c2=O)cc1)N1CCC(N2CCCCC2)CC1
    0.989	-0.251
> CCOc1cccc2sc(NC(=O)c3ccc(S(=O)(=O)N4CCCCC4)cc3)nc12
    1.15	4.54
> CC(=O)NCc1nc2ccccc2n1Cc1cc(C)ccc1C
    1.26	2.63
> O=C(Nc1ccc2oc(-c3ccncc3)nc2c1)C1CCCCC1
    1.02	0.168
> COCCNC(=O)c1nn2c(c1Cl)NC(c1cccs1)CC2C(F)(F)F (stereo not given)
    1.15	1.76

Screens (PubChem BioAssay)

Only part of the results is shown (hit frequency here may not be typical).
